# SARS PLP yeast: qHTS of Yeast-based Assay for SARS-CoV PLP; S. cerevisiae expressing SARS-CoV PLpro, growth rescue; control for the full effect not named in the record; actives 0.19% (n = 330,000); Potency, µM (titrated, usually from 32.9 µM), without a hit: top-dose activity, positive = growth rescue; further: 0% is about no effect; nearly all actives have a fitted effect of over 55% in size; growth read by luminescence after 48 h
# Cruzain inh noDet: qHTS Assay for Promiscuous and Specific Inhibitors of Cruzain (without detergent); Cruzipain (Trypanosoma cruzi), P25779; purified cruzain, Z-FR-AMC fluorescence, no detergent; Potency, µM, for inactives: max response, negative = inhibition, actives largely listed as inhibitors; actives 2.3% (n = 200,000); active means well fitted curve in the direction sought with a large enough effect; inconclusive means small, poorly fitted or top-dose-only effect, or another doubt; inactive means no such curve, though single readings can be large; an effect the other way counts as inactive or inconclusive;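 further: plate controls were enzyme without inhibitor for no effect and buffer without enzyme for full effect; nearly all actives have a fitted effect of over 40% in size; top concentration of the series not given in the record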
# Target sequence (P25779 123-467 limits assumed): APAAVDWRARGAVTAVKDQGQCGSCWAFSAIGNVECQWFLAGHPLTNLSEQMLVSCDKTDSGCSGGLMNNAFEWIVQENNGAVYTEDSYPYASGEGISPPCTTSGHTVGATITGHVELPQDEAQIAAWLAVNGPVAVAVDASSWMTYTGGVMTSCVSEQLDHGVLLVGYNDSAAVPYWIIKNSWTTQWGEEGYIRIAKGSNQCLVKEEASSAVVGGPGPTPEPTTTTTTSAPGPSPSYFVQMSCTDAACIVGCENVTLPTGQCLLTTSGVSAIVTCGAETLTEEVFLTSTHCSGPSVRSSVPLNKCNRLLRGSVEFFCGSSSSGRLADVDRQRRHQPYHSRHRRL
#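 Purified cruzain at 1.5 nM, pre-incubated 15 min with compound at room temperature in 100 mM sodium acetate pH 5.5, 5 mM DTT, 0.00005% Triton X-100. Reaction started with 2 uM Z-FR-AMC; AMC fluorescence increase over 60 s gives rate.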
# Cruzain inh Det: qHTS Assay for Promiscuous and Specific Inhibitors of Cruzain (with detergent). actives 0.43% (n = 200,000). Potency, µM, for inactives: max response, negative = inhibition, most hits filed as inhibitors. purified cruzain, Z-FR-AMC fluorescence, 0.01% Triton. Cruzipain (Trypanosoma cruzi), P25779; active means well fitted curve in the direction sought with a large enough effect; inconclusive means small, poorly fitted or top-dose-only effect, or another doubt; inactive means no such curve, though single readings can be large; an effect the other way counts as inactive or inconclusive;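 further: plate controls were neutral wells for no effect and buffer without enzyme for full effect; nearly all actives have a fitted effect of over 40% in size; top concentration of the series not given in the record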
#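 Detergent-containing run (0.01% Triton X-100) in acetate buffer pH 5.5 with 5 mM DTT: enzyme at 1.5 nM final, 15 min compound preincubation at room temperature, then 2 uM Z-FR-AMC substrate. Activity taken as 60 s fluorescence increase at 360/450 nm.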
# Lassa entry inh: qHTS for Inhibitors of binding or entry into cells for Lassa Virus; Lassa virus pseudotype entry inhibition, cell reporter; control for the full effect not named in the record; AID 540256, 2011; actives 1.2% (n = 300,000); Potency, µM (top dose mostly 37.9 µM), for inactives: top-dose activity change, negative = inhibition, actives largely listed as inhibitors; active means well fitted inhibition curve with a large enough effect; inconclusive means small, poorly fitted or top-dose-only effect, or effect the other way; inactive means flat fitted curve, though single readings scatter; tested in HEK293 cells; further: on the % scale 0 is the no-effect control and ±100 the full control effect; nearly all actives have a fitted effect of over 50% in size; luciferase read-out
# 2A StopGo: High Throughput Screening for Foot and Mouth Disease Virus Antivirals. human cells with a luciferase reporter of 2A StopGo recoding; control for the full effect not named in the record. Potency, µM (highest dose often 57.9 µM), for inactives: at the top dose signal change, negative = less light. actives 1.2% (n = 410,000); active = well fitted falling curve with a large enough effect; inconclusive = small, poorly fitted or top-dose-only effect; inactive = no such curve, though single readings can be large or run the other way; tested in HEK293T cells; further: on the % scale 0 is the no-effect control and ±100 the full control effect; nearly all actives have a fitted effect of over 45% in size; luciferase light after 4 h
# Marburg entry inh: qHTS for inhibitors of binding or entry into cells for Marburg Virus; Marburg virus pseudotyped entry inhibition, cell reporter; control for the full effect not named in the record; about a third of the inactives were read at about 46 µM; Potency, µM (highest dose often 37.8 µM), for the others: at the highest dose activity change, negative = inhibition, hits mostly inhibitors; actives 1.8% (n = 300,000); AID 540276, 2011; active = well fitted inhibition curve with a large enough effect; inconclusive = small, poorly fitted or top-dose-only effect, or effect the other way; inactive = flat fitted curve, though single readings scatter; tested in HEK293 cells; about a fifth of its hits are not listed in these tables; further: on the % scale 0 is the no-effect control and ±100 the full control effect; luciferase read-out
# RE007 growth inh: qHTS Assay for Inhibitors of the HIV-1 protein Vpr; S. pombe RE007 Vpr strain, BacTiter-Glo ATP luminescence, 24 h; control for the full effect not named in the record; Potency, µM (titrated, usually from 92.2 µM), inactives show at the highest dose activity change, negative = less growth; actives 0.21% (n = 360,000); AID 651644, 2012; active = well fitted falling curve with a large enough effect; inconclusive = small, poorly fitted or top-dose-only effect; inactive = no such curve, though single readings can be large or run the other way;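 further: on the % scale 0 is the no-effect control and ±100 the full control effect; nearly all actives have a fitted effect of over 50% in size; the assay follows cell death caused by Vpr and the record does not say whether a fall means rescue or toxicity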
#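 Fission yeast RE007 carrying one integrated HIV-1 vpr copy, seeded at OD 0.01 in PMG+AL medium with 23 nL pinned compound. Grown 24 h at 30 degrees; viability read by BacTiter-Glo luminescence after 5 min.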
# NS1 inh: qHTS Assay for Inhibitors of Influenza NS1 Protein Function. S. cerevisiae slowed by influenza A NS1, growth recovery by OD600. Potency, µM (highest dose often 46.1 µM), without a hit: top-dose activity, positive = more growth. actives 0.4% (n = 270,000). AID 2326, 2010; further: actives are rising curves; nearly all actives have a fitted effect of over 50% in size
#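 Read-out: OD600 growth recovery of NS1-expressing budding yeast. Cells grown overnight at 30C in -URA glucose medium, washed, resuspended and diluted 1:100 in 2% galactose assay medium, pH 6.0. Same strain lacking NS1 served as positive control.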
# The depositor's hits bear a star; ? = inconclusive; . = no result given; [ ] = remark or other dose. Unless noted, the call rests on the fitted dose curve; in most records, active means well fitted rising curve with a large enough effect; inconclusive means small, poorly fitted or top-dose-only effect; inactive means no such curve, though single readings can be large or run the other way. Potency means the concentration at half of the fitted maximal effect.
smiles	Lassa entry inh	Cruzain inh Det	2A StopGo	NS1 inh	SARS PLP yeast	RE007 growth inh	Cruzain inh noDet	Marburg entry inh
CC(=O)c1ccc(NC(=O)c2ccc3nc(C)sc3c2)cc1	.	.	0%	9%	0%	2%	.	.
Cc1cc(O)c(-c2cc(C(=O)Nc3cccnc3)[nH]n2)cc1C	.	.	36%[activator]	-2%	-1%	15%	.	.
CCOc1cc2c(cc1OCC)C(c1ccccc1)N(c1ccccc1)C(=O)C2 (stereo unspecified)	-28%	-2.9%	-16%	-4%	2%	-4%	?	?
O=C(O)CC(NC(=O)C12CC3CC(CC(C3)C1)C2)c1ccc(F)cc1 (stereo unspecified)	.	.	-9%	3%	1%	11%	.	.
O=P(Nc1ccccc1)(Nc1ccccc1)Oc1cccc(Cl)c1	3%	-4.8%	16%	-15%	7%	5%	7%	?
Cc1cccc2cc(C#N)c(SCc3nnc(-c4ccccc4[N+](=O)[O-])o3)nc12	-13%	-9.6%	-2%	0%	-5%	-3%	?	?
CC(C)(C)NC(=S)NCc1cccnc1	-19%	4.0%	-22%	0%	6%	6%	-1%	-3%
Cc1nc(C)n(CC(C)C(=O)N2CCN(S(=O)(=O)c3ccc(Cl)cc3)CC2)n1 (stereo unspecified)	17%[46.1 µM]	.	-5%	5%	-4%	3%	.	8%[46.1 µM]
COc1ccc2c(CNCc3ccco3)c(C(=O)O)n(Cc3cccc(F)c3)c2c1	-17%[46.1 µM]	-1.6%	13%	.	.	.	3%	.
CC(C)CCNC(=O)c1c[nH]c2ccc(S(=O)(=O)Nc3cccc(C(F)(F)F)c3)cc2c1=O	25%[46.1 µM]	-9.8%	-1%	.	.	.	-4%	.
CO/N=C/c1ccc(Oc2ccc(C)cc2)c([N+](=O)[O-])c1	0%	.	7%	.	-3%	0%	.	?
Cc1ccc2[nH]c(=O)c(CNC(C)C)cc2c1	-1%	3.2%	11%	-7%	1%	-3%	5%	-4%
Cc1nn(C(C)C(=O)NCCCN2CCCCC2C)c(=O)c2c1sc1ccccc12 (stereo unspecified)	.	.	-20%	3%	-4%	-3%	.	.
CCCCCC(=O)N1c2ccccc2C(C)(c2ccccc2)CC1(C)C (stereo unspecified)	?	-5.2%	-11%	.	.	.	10%	-26%[46.1 µM]
Cc1nnc(SCC(=O)c2c(N)n(C)c(=O)n(C)c2=O)n1Cc1ccccc1	0%	-2.1%	.	3%	22µM*	8%	-6%	2%
Cc1cccc(C)c1NC(=O)c1cccc2c1C(=O)N(C1CCCCC1)C2	?	.	-26%	-20%	-13%	1%	.	?
O=[N+]([O-])c1cc(S(=O)(=O)NCCN2CCOCC2)ccc1Cl	?	.	6%	11%	-1%	-15%	.	?
COc1ccc(OC)c(S(=O)(=O)NC(C)c2cnn(-c3ccccn3)c2C)c1 (stereo unspecified)	4%	.	5%	30%	6%	-13%	.	13%
CCC(C)NC(=O)CSc1nc2cc(S(=O)(=O)N3CCOCC3)ccc2n1CC (stereo unspecified)	-2%	.	-8%	.	-2%	1%	.	3%
O=C1NC(c2cccnc2)C(C(=O)c2cccs2)C(O)(C(F)(F)F)N1 (stereo unspecified)	16%	-2.3%	12%	4%	1%	-6%	-5%	?
OC(CNCc1ccco1)Cn1c2ccccc2c2ccccc21 (stereo unspecified)	?	-0.9%	-7%	-5%	1%	6%	6%	16µM*
O=C1[C@@H]2Cc3c([nH]c4ccccc34)C(c3cccc(Br)c3)N2C(=O)CN1C1CCN(Cc2ccccc2)CC1 (stereo partly specified)	?	.	-23%	9%	2%	11%	.	?
CC(OC(=O)CCc1ccccc1)C(=O)Nc1ccc(Cl)cn1 (stereo unspecified)	-15%	.	-19%	.	-6%	9%	.	-8%
O=C(COc1c(Cl)cccc1Cl)Nc1ccccc1N1CCCC1	-21%	.	15%	-9%	-8%	6%	.	-30%
CC(C)C(=O)Nc1ccccc1C(=O)N/N=C/c1ccc([N+](=O)[O-])cc1	14%	-6.9%	2%	-4%	1%	14%	?	12%
C=CCn1c(COc2ccc(Cl)cc2)nnc1SCC(=O)N/N=C/c1ccccc1	6%	6.7%	-10%	?	-1%	7%	-4%	4%
O=C(c1ccccc1)c1cccn1CC(=O)N1CCCCCC1	12%	-1.7%	2%	-1%	7%	-7%	10%	-4%
Cc1cccc(C(=O)Nc2cccc(OC(=O)c3cccc(C)c3)c2)c1	16%	-3.1%	25%	-29%	2%	1%	-11%	-14%
CN(C(=O)CSc1nnnn1-c1ccccc1)C1CCS(=O)(=O)C1 (stereo unspecified)	-3%	.	12%	.	0%	-7%	.	0%[46.1 µM]
CC(NC(=O)COC(=O)c1ccco1)c1ccccc1 (stereo unspecified)	25%	0.7%	19%	5%	-3%	5%	-4%	27%
CC(=O)OCc1nc2ccccc2s1	-15%	1.9%	77%[activator]	19%	2%	2%	-7%	?
Cc1ccc(OC(=S)Nc2ccccc2)c(C)c1	-11%	-1.2%	0%	2%	13%	10%	-7%	0%
COc1cc(/C=C2/SC(=S)N(Cc3ccccc3)C2=O)ccc1OS(C)(=O)=O	.	.	8%	-5%	1%	-2%	.	.
Cc1ccc(C2C3=C(Nc4[nH]n(-c5ccccc5)c(=O)c42)c2ccccc2C3=O)cc1 (stereo unspecified)	?	?	.	18%	-70%	.	?	22%
Cc1ccc(S(=O)(=O)N2CCN(c3ccnc4cc(Cl)ccc34)CC2)cc1C	-2%[46.1 µM]	.	?	-3%	-3%	-18%	.	?
CN(C)S(=O)(=O)N(CC(=O)Nc1ccc(F)c(F)c1)c1ccccc1	30%[14.3 µM]	-1.8%	-8%	-1%	13%	-3%	-5%	-9%
CCc1ccc(NC(=O)C2CCN(S(=O)(=O)c3ccc4c(c3)N(C(C)=O)CCO4)CC2)cc1	.	.	?	16%	25%	-8%	.	.
COC(=O)C1CCN(C(=O)c2ccc3nccnc3c2)CC1	1%[46.1 µM]	.	-6%	-1%	-1%	-10%	.	7%[46.1 µM]
Cc1ccc(CNC(=O)c2ccc(OCC3CCCO3)cc2)cc1 (stereo unspecified)	8%	1.3%	7%	3%	9%	.	-4%	12%
CCCOc1ccc(N2C(=O)CC(N(CCCO)C(=O)CC)C2=O)cc1 (stereo unspecified)	3%	.	-3%	-6%	0%	-2%	.	1%

# A draw from above in order of SMILES length, smallest number first.
smiles	Lassa entry inh	Cruzain inh Det	2A StopGo	NS1 inh	SARS PLP yeast	RE007 growth inh	Cruzain inh noDet	Marburg entry inh
CC(=O)OCc1nc2ccccc2s1	-15%	1.9%	77%[activator]	19%	2%	2%	-7%	?
CCCOc1ccc(N2C(=O)CC(N(CCCO)C(=O)CC)C2=O)cc1 (stereo unspecified)	3%	.	-3%	-6%	0%	-2%	.	1%
O=[N+]([O-])c1cc(S(=O)(=O)NCCN2CCOCC2)ccc1Cl	?	.	6%	11%	-1%	-15%	.	?
CC(C)C(=O)Nc1ccccc1C(=O)N/N=C/c1ccc([N+](=O)[O-])cc1	14%	-6.9%	2%	-4%	1%	14%	?	12%
CC(C)CCNC(=O)c1c[nH]c2ccc(S(=O)(=O)Nc3cccc(C(F)(F)F)c3)cc2c1=O	25%[46.1 µM]	-9.8%	-1%	.	.	.	-4%	.

# (continued)
smiles	Lassa entry inh	Cruzain inh Det	2A StopGo	NS1 inh	SARS PLP yeast	RE007 growth inh	Cruzain inh noDet	Marburg entry inh
CCc1nc2ccccc2c(=O)n1/N=C/c1ccc(OC)cc1	-4%	.	1%	.	.	8%	.	-8%
CCSc1nc(N)c2c(C)c(C)sc2n1	-9%	-3.4%	38%[activator]	-1%	24%	-5%	?	-1%
N=c1sccn1CC(=O)NC(=O)NC1CCCC1	-2%	-3.3%	-18%	-6%	-13%	24%	-3%	?
CCOCCCNC(=O)c1c[nH]c2ccc(OCC)cc2c1=O	.	.	-27%	-68%	-4%	-4%	.	.
Cc1c(C(=O)N(C)C)sc2c1c(=O)n(-c1ccccc1C(F)(F)F)c(=O)n2Cc1cccc(F)c1	-4%[46.1 µM]	-3.8%	-19%	.	.	.	?	.
COCCCNC(=O)CCN1C(=O)COc2ccccc21	5%	3.8%	.	-3%	-14%	9%	-9%	18%
Cc1cc(C[n+]2cc(Br)ccc2N)c2ncccc2c1	-21%[46.1 µM]	.	-17%	-13%	0%	-24%	.	?
CC1=C(C(=O)NCCc2ccc(C)cc2)C2(CCC(C)CC2)OC1=O (stereo unspecified)	-4%	-0.2%	-6%	-16%	-1%	-4%	27%	-1%
Cc1csc(SCC(=O)NC(=O)NC2CCCC2)n1	7%[46.1 µM]	.	6%	.	1%	4%	.	13%[46.1 µM]
Cc1ccc(-c2nnc(CCC(=O)NCC3C4CC5CC(C4)CC3C5)o2)s1 (stereo unspecified)	7%[46.1 µM]	.	28%	-5%	-1%	-20%	.	?
Cc1cc(C)c(S(=O)(=O)N2CCC(N3CCN(Cc4ccccc4)C(=O)C3=O)CC2)c(C)c1	10%[46.1 µM]	2.9%	-17%	.	.	.	5%	.
COc1ccc(CN(C(=O)CSc2nnc(-c3ccccc3F)o2)c2ccc(F)cc2)cc1	-9%	-1.2%	.	-24%	-6%	5%	-14%	?
CC1(C)CC(=O)C2=C(C1)Oc1ncn(CCO)c(=N)c1C2c1ccccc1 (stereo unspecified)	4%	-2.6%	-9%	-3%	7%	-2%	5%	1%

# Assay outcomes as filed in PubChem.
